gsp antag: antagonists of gsp mutant (McCune-Albright syndrome); actives 0.4% (n = 340,000); Potency, µM (doses to about 76.9 µM), inactives show top-dose activity change, negative = inhibition, hits mostly inhibitors; gsp-mutant cells, cAMP HTRF, 30 min; control for the full effect not named in the record; active = falling curve of any shape with a large fitted effect; inconclusive = falling curve, mostly with a smaller effect; inactive = flat or rising curve; cell line not stated here;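 further: intracellular cAMP measured with PDE inhibitor Ro 20-1724 present during compound exposure; potency means the concentration at half of the fitted maximal effect; on the % scale 0 is the no-effect control and ±100 the full control effect; nearly all actives have a fitted effect of over 65% in size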
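HTRF cAMP read-out (cAMP-d2 plus anti-cAMP antibody-K in lysis buffer, 30 min RT). Before lysis, cells are exposed to compounds with […] for 30 min at 37C in DPBS containing Ca/Mg, BSA and Tween 20.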
Menin MLL FP FL: menin-MLL binding inhibition, fluorescein peptide. Fluorescence polarization, fluorescein-MLL peptide displacement from menin. 290,000 tested, under 10 active. AID 1766. FP activity change, % at 61.4 µM; inconclusive = falling polarisation curve, or a change in total fluorescence; inactive = total fluorescence flat and polarisation flat or rising; no compound was filed as active; the % refers to the polarisation; negative = inhibition;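 further: % of control where 0% means no effect; inhibitors lower the polarisation; unlabelled MLL peptide was the positive control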
gsp ag: gsp mutant agonism. actives 0.13% (n = 340,000). gsp mutant cells, cAMP HTRF, 30 min; control for the full effect not named in the record. AID 624287. Potency, µM (highest dose often 76.9 µM), for the others: at the highest dose activation (cAMP increase), most hits filed as activators; active = well fitted activation curve with a large enough effect; inconclusive = small, poorly fitted or top-dose-only effect, or another doubt; inactive = no such curve, though single readings can be large or run the other way; cell line not stated here;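 further: phosphodiesterase inhibitor Ro 20-1724 added with compounds to block cAMP breakdown; potency means the concentration at half of the fitted maximal effect; nearly all actives have a fitted effect of over 60% in size; about a fifth of the inactives were tested at one dose only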
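Cells stably selected in G418 were plated at 2000/well, grown 16-24 hr, then given compounds in DMSO with the PDE inhibitor […] (300 uM solution added) for 30 min at 37C; cAMP was read by HTRF.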
ClpP mod: qHTS Assay for Activators of ClpP | actives 1.9% (n = 340,000) | purified B. subtilis ClpP, FRET peptide cleavage, 20 min | AID 651965, 2013 | Potency, µM (series often up to 57.5 µM), without a hit: top-dose activity change, negative = active; active = well fitted falling curve with a large enough effect; inconclusive = small, poorly fitted or top-dose-only effect; inactive = no such curve, though single readings can be large or run the other way; further: potency means the concentration at half of the fitted maximal effect; the source files actives as falling curves though it sought activators and does not explain the sign; nearly all actives have a fitted effect of over 65% in size; many hits overshoot -100%
Target sequence (P80244 whole entry, looked up): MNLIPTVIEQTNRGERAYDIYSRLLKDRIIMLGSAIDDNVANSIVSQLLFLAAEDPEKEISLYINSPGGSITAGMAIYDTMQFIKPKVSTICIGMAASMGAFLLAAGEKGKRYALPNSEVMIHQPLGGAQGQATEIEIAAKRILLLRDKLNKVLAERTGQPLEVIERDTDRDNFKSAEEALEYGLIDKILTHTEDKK
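Buffer: 100 mM Tris/HCl pH8, 100 mM KCl, 0.05% low protease BSA, 2.5% glycerol, 0.01% Tween-20. ClpP 10 microg/mL final; 20 min RT; delta FRET normalized to ADEP and DMSO controls.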
TRPV1 potentiator: human TRPV1 potentiation; actives 0.02% (n = 320,000); Q8NER1; potentiation, % at 8.33 µM; TRPV1-expressing cells, Fluo-8 calcium influx, capsaicin EC20 potentiation; host cell line not named in the record; control for the full effect not named in the record; active means potentiation above 80%; inconclusive means 30% to 80%; inactive means below 30%; further: 0% is about no effect
Target sequence (Q8NER1 whole entry, looked up): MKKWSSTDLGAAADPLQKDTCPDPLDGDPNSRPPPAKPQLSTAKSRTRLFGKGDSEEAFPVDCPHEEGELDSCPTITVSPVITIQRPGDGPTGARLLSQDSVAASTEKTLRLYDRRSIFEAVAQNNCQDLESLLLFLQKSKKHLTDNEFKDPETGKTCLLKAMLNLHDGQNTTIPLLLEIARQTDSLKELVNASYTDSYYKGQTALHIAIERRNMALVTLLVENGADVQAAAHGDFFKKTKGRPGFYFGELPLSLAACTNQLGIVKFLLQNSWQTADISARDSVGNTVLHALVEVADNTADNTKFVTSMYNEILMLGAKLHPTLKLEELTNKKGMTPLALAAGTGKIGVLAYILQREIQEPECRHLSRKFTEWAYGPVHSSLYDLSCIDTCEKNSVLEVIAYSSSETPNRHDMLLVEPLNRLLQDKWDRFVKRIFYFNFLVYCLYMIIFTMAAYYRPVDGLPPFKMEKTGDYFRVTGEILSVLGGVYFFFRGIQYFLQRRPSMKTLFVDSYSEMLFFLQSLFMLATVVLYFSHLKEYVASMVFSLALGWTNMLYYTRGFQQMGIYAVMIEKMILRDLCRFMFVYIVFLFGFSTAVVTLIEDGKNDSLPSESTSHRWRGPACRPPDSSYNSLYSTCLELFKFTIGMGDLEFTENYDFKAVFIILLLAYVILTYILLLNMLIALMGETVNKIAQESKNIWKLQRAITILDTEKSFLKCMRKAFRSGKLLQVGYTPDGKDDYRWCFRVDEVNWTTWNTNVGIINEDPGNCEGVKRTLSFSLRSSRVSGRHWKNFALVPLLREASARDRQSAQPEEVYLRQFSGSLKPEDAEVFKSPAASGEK
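Cells expressing TRPV1 were dye-loaded with Fluo-8 and read kinetically: 10 s baseline, 3 min after compound (agonist portion), then 2 min after EC20 capsaicin (allosteric enhancer portion). Calcium-bound dye fluorescence at 480/520 nm.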
CtBP-E1A blk: blocks the CtBP interaction with E1A; AlphaScreen GST-E1A/His-CtBP binding, 1536-well; active compounds read low; control for the full effect not named in the record; activity change, % (concentration not given with the values); actives 0.49% (n = 340,000); AID 651724; in the data active means activity change below about -65%; inconclusive means about -30% to -65%; inactive means above about -30%; further: on the % scale 0 is the no-effect control and ±100 the full control effect
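Steps: dispense buffer (Tris pH 8.0, NaCl 300 mM, TCEP 1 mM, BSA, Tween 20); add 5X protein mix (GST-E1A, His-CtBP, 125 nM each); pin 23 nL compound; 2 h at 37 °C, dark; add 5X beads (50 ug/mL); 1 h; read.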
Sfp inh: Sfp phosphopantetheinyl transferase inhibition; Q9F4F7; Biochemical Sfp PPTase activity, qHTS; Potency, µM, without a hit: max response, negative = inhibition, usual class: inhibitors; actives 3.5% (n = 310,000); active means well fitted inhibition curve with a large enough effect; inconclusive means small, poorly fitted or top-dose-only effect, or another doubt; inactive means no such curve, though single readings can be large or run the other way;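 further: the enzyme is Sfp with the accession as filed and its product quenches rhodamine fluorescence; potency means the concentration at half of the fitted maximal effect; 0% = enzyme reaction without inhibitor and -100% = no enzyme wells; top concentration of the series not given in the record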
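Fluorescence-quenching assay: 15 nM Sfp-PPTase preincubated 15 min at room temperature with compound, then 5 uM rhodamine-CoA and 12.5 uM BHQ-2-labelled YbbR peptide added. Fluorescence (ex 525/em 598 nm) read at start and after 30 min; difference gives rate.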
Starred values were filed as active, the others as inactive; u = inconclusive; x = no result given; & = joins results of further samples; [ ] = dose if it differs, or a comment. Hits appear at their usual frequency; 5.3% or so of the library scored in one or more.

SMILES	gsp antag	Menin MLL FP FL	gsp ag	ClpP mod	TRPV1 potentiator	CtBP-E1A blk	Sfp inh
COc1ccccc1NS(=O)(=O)c1cc(C(=O)NCC(c2ccco2)N(C)C)ccc1C (centres undefined)	-10%	x	21%	-1.2%	-4	3	x
O=S(=O)(c1ccccc1)N1CN(Cc2ccc(F)cc2)c2nc3ccccc3nc21	-14%	-1.4	1%[15.4 µM]	x	2	0	8%
CCOC(=O)c1c(NC(=O)Cn2cnc3sc(C)c(-c4ccccc4)c3c2=O)sc(C)c1C	-4%	7.0	8%[15.4 µM]	x	3	8	u
COc1ccc(-c2nnc(SCc3nnc(-c4ccccc4)o3)n2-c2ccccc2)cc1	3%	2.6	9%	1.3%	3	6	-1%
CCOC(=O)CN1C(=O)C(=O)N(Cc2c(F)cccc2Cl)C1=O	20%	8.2	-8%[15.4 µM]	-1.1%	-7	7	7%
CCOC(=O)c1[nH]c2ccccc2c1NC(=S)Nc1ccccc1C	u	3.1	u	4.7%	3	-28	u
N=c1ccn(Cc2ccc(Cl)cc2)cc1	5%	4.2	-29%	-3.6%	14	-10	-13%
Cn1c(CC(=O)Nc2ccccc2F)nnc1SCC(=O)Nc1ccccc1Br	-3%	-13	1%[15.4 µM]	x	2	-4	8%
CCCN(CCC)C(=O)/C=C/c1cccc([N+](=O)[O-])c1	6%	0.7	0%	0.0%	-8	-16	-2%
CCOc1cccc(-c2nnc3sc(-c4cccs4)nn23)c1	-10%	-4.4	16%	-2.8%	0	-4	-2%
CCC(C)[C@H](N)C(=O)NC[C@H]1CC[C@H](C(=O)N[C@@H](Cc2ccccc2)C(=O)O)CC1 (some centres undefined)	10%	-7.7	6%	x	16	-2	5%
Cc1ccc(-n2c(C)nnc2SCC(=O)N2CCc3ccccc3C2)cc1C	u	5.0	6%	-3.0%	-20	-7	2%
COc1ccc(-c2csc(NC(=O)c3ccoc3C)n2)cc1	-38%	-2.4	13%[15.4 µM]	x	2	-6	u
Cc1ccc(SCCNC(=O)c2ccc(C)c([N+](=O)[O-])c2)cc1	u	-1.6	-45%[inhibitor]	-0.7%	-4	0	5%
COc1cc(SC)ccc1C(=O)N1CCCCCC1	-3%	2.7	9%	0.8%	-65	-3	-6%
c1ccc(N=C2SCCCS2)cc1	x	x	11%	-3.5%	x	0	x
Cc1cc(C(=O)Nc2ccc(Br)cn2)sc1C	-9%	x	-22%	0.7%	-5	x	x
O=C(c1ccco1)N1CCn2cccc2C1c1ccccc1 (centres undefined)	-28%	11	-6%[15.4 µM]	3.3%	-13	-22	-27%
CCC1(CC)CNC(=O)NC1=O	-5%	x	-57%[inhibitor]	0.7%	x	7	x
OCC[C@H]1C[C@H](O)[C@@H](O)[C@@]2(Cc3ccccc3CO2)O1	8%	x	-6%	0.0%	-1	8	x
CC1(C)CC(=O)C(C(c2cccnc2)C2C(=O)CC(C)(C)CC2=O)C(=O)C1	-5%	-4.1	2%	-1.4%	4	-13	1%
CC(C)On1c(SC(C)C)nc2ccccc2c1=O	12%	-1.6	15%	-0.5%	8	-3	-2%
COc1ccc(CNC(=O)C[C@H]2C(=O)N(Cc3ccc(OC)cc3)C[C@@H]2Cc2ccccc2)cc1	-12%	0.9	-25%	-2.1%&-2.2%	-14	5	-2%
Cn1sc(NC(=O)c2ccc(Cl)cc2)nc1=O	-26%	2.6	9%	-22%	-32	2	56µM*
CCc1ccc2[nH]c3nc(SCc4nnc(-c5ccccc5)o4)nnc3c2c1	11%	1.6	-1%[15.4 µM]	x	4	8	18%
CCC(C)NS(=O)(=O)c1ccc(F)c(C(=O)Nc2c(F)cc(F)cc2Br)c1 (centres undefined)	2%	5.3	-1%	1.5%	7	2	-10%
Cc1ccc(NC(=O)COc2ccc(S(=O)(=O)N3CCOCC3)cc2)cc1	-3%	2.7	-10%	-5.4%	-15	15	10%
Cc1ccc(N2CCN(C(=O)c3cccs3)CC2)c(C)c1	-10%	-3.9	17%	x	-13	3	-5%
Cc1ccc(CCC(=O)Nc2ccc([N+](=O)[O-])cc2Cl)o1	-14%	1.1	-4%[15.4 µM]	1.0%	-11	1	0%
CCOC(=O)C1=CC[C@@H](c2cc3cc(OC)ccc3n2C)N(S(=O)(=O)c2ccc(C)cc2)[C@H]1C(=O)OCC	3%	x	-31%[inhibitor]	-0.5%	x	24	x

Shown field by field: two of the compounds above.
> CCC(C)NS(=O)(=O)c1ccc(F)c(C(=O)Nc2c(F)cc(F)cc2Br)c1 (centres undefined)
- gsp antag: 2%
- Menin MLL FP FL: 5.3
- gsp ag: -1%
- ClpP mod: 1.5%
- TRPV1 potentiator: 7
- CtBP-E1A blk: 2
- Sfp inh: -10%

> Cc1ccc(NC(=O)COc2ccc(S(=O)(=O)N3CCOCC3)cc2)cc1
- gsp antag: -3%
- Menin MLL FP FL: 2.7
- gsp ag: -10%
- ClpP mod: -5.4%
- TRPV1 potentiator: -15
- CtBP-E1A blk: 15
- Sfp inh: 10%

Next section:
SMILES	gsp antag	Menin MLL FP FL	gsp ag	ClpP mod	TRPV1 potentiator	CtBP-E1A blk	Sfp inh
Cc1cc(C)nc(CCNC(=O)c2cc(COc3ccc(F)cc3F)on2)n1	7%	1.1	12%[15.4 µM]	x	2	3	11%
NC(=S)N=Nc1c(O)n(CC(=O)Nc2ccccc2)c2ccccc12	16%	1.6	5%	2.2%	-5	2	6%
COc1ccc(/C(O)=C2/C(=O)C(=O)N(CCCN(C)C)C2c2ccc(Cl)cc2)cc1OC (centres undefined)	22%	x	u	-4.6%	x	2	x
O=C(NC(=S)Nc1cccc2cccnc12)c1ccccc1	-16%	4.2	1%	2.0%	1	-3	9%
Cc1nnc(C)n1/N=C/c1cccc(Oc2ccccc2)c1	-5%	4.6	12%	-1.3%	-12	-5	3%
CCOC(=O)CN1C(=O)S/C(=C/c2cc(C)n(-c3ccccn3)c2C)C1=O	-6%	2.0	-6%	-9.2%	-7	-10	4%
O=C(NCc1ccco1)c1nc2ncccn2n1	12%	1.7	4%	0.7%	12	1	-2%
COc1ccc(C(=O)Nc2nc3ccccc3c(=O)[nH]2)cc1	-17%	1.2	-41%[inhibitor]	-2.9%	-11	-5	9%
CN(C(=O)CO/N=C/c1ccc(OC(F)F)cc1)C1CCS(=O)(=O)C1 (centres undefined)	4%	-3.0	26%	x	-8	-1	7%
Cc1ccccc1NS(=O)(=O)c1cc(C(=O)N2CCCC2)ccc1C	-11%	-1.2	8%	1.5%	5	3	-3%
COc1ccc(/C=C/C(=O)NCc2nc3ccccc3[nH]2)cc1OC	9%	1.5	6%[15.4 µM]	x	6	-15	20%
O=C(NCc1ccco1)c1ccc(Oc2ccccc2)cc1	-2%	4.0	10%	-0.5%	-18	1	79µM*
COc1ccc(C(=O)CN2C(=O)NC3(CCCc4ccccc43)C2=O)cc1OC (centres undefined)	15%	2.0	-18%	0.6%	26	6	5%
O=C(N/N=C/c1cccnc1)c1ccccc1[N+](=O)[O-]	6%	4.7	0%	1.7%	-16	x	11%
O=C(NCCc1ccccc1)C(=O)N/N=C/c1ccccc1C(F)(F)F	5%	1.6	-16%	2.7%	4	-3	6%
COc1ccc(S(=O)(=O)N2CCN(C(=O)c3cc4c(s3)CCCC4)CC2)cc1	u	x	-1%	-1.7%	-5	x	x
COc1ccc(Nc2nc(Cl)nc(NCc3ccco3)n2)cc1	4%	-1.7	u	0.6%	1	3	-8%
C/C(=N/NS(=O)(=O)c1ccc(C)cc1)[C@H]1C[C@@H]1c1ccccc1	1%	-0.2	17%[15.4 µM]	x	9	6	-6%
C[C@@H]1CN([C@H](C)CO)C(=O)c2c(c3ccccc3n2C)-c2ccccc2CO[C@H]1CN(C)Cc1ccc(Oc2ccccc2)cc1	x	x	7%	-23%	x	-8	x
N#C/C(=C\c1ccccc1)C(=O)Nc1ccccn1	7%	-0.6	13%	x	7	5	4%
COc1cc(/C=C/C(=O)O)cc(S(=O)(=O)N2CCN(S(=O)(=O)c3ccc(Cl)cc3)CC2)c1OC	4%	-3.1	26%	-25%	7	x	-2%
Cc1cc(C(=O)COC(=O)C2=NN(c3ccccc3)C(=O)CC2)c(C)n1CC(F)(F)F	-4%	-0.2	17%	x	-3	6	13%
c1ccc2c(CNCCN3CCOCC3)cccc2c1	5%	2.8	-9%	u	-1	3	15%
CCOC(=O)CCC(=O)OCC(=O)NC(C)C1CC2CCC1C2 (centres undefined)	27%	-5.4	4%	0.5%	2	8	20%
CCc1cccc(C)c1NC(=S)N1CCCC1C(=O)O (centres undefined)	9%	4.6	u	0.6%	-1	-5	7%
CC1CCN(C(=O)CSc2ccc(-c3cccnc3)nn2)CC1	-1%	x	0%[15.4 µM]	-0.8%	2	0	0%
O=C(Nc1nccs1)c1ccccc1Br	10%	-0.3	-17%	-0.1%	u	x	8%
O=C(CCN1CCN(Cc2ccccc2)CC1)Nc1ccc(OCc2ccccc2)cc1	2%	-0.6	-88%[inhibitor]	-0.4%	22	u	-13%
COCCNC(=O)c1c[nH]c2ccc(S(=O)(=O)Nc3ccc(F)cc3F)cc2c1=O	1%	0.0	18%	-19%&-21%	-15	-15	4%
Cc1ccc(C)c(OCCCNCc2ccccc2)c1	10%	5.0	0%	-1.3%	-2	x	6%
CN1CCN(C(=O)CCCOc2ccc(Cl)cc2Cl)CC1	10%	0.4	-4%	-2.0%	-8	-5	-3%
CCOC(=O)C1=C(COC(=O)COc2ccc(OCC)cc2)NC(=O)NC1C (centres undefined)	-4%	x	-23%	-4.5%	-9	-4	x
CC1CCC2(CC1)NC(=O)N(CC(=O)Nc1cccc(S(=O)(=O)N3CCCCC3)c1)C2=O (centres undefined)	-4%	x	1%	-3.1%	x	x	x
COC(=O)c1sc(SC)c2c1CC(C)(C)C/C2=N/O	5%	2.5	14%[15.4 µM]	x	-12	-5	20%
COC(=O)c1sccc1NC(=O)CSc1ccccc1NC(=O)CNC(C)C	-1%	-2.2	28%	0.5%	7	-6	7%
CCN(CC)C(=O)c1ccc2nc(-c3ccccc3)c(-c3ccccc3)nc2c1	-15%	5.6	-5%	25µM*	-8	4	-26%
CC1(C)CC(=O)C=C(NCCO)C1	10%	-0.6	-25%	0.0%	-2	8	13%
Cc1ccc(S(=O)(=O)NNC(=S)NC(=O)c2ccc([N+](=O)[O-])cc2)cc1	4%	7.1	2%	-5.1%	8	-7	11%

Bioassay records deposited in PubChem by National Center for Advancing Translational Sciences (NCATS).
